Bioassay records: PubChem BioAssay, Broad Institute
A1 apoptosis 2 – A1 inhibition read as caspase activation; MEF A1-2A-BIM cells, caspase-Glo luminescence, 3 h; percent of clofoctol response, DMSO zero; AID 2465; caspase activation, % (no concentration beside the values); 24,000 tested, under 10 active; in the data active means caspase activation above about 5.9%;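 further: wells of about 30 µL received 50 nL stock; the first replicate is given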
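System: mouse embryonic fibroblasts co-expressing A1 and BIM (A1-2A-BIM), primed for A1 dependence; amount: 2500 cells/well; doses: 50 nL pinned compound; schedule: cells settled overnight, compound exposure 3 h at 37 °C, 5% CO2; detection: Caspase-Glo 3/7 luminescence, 1 h at room temperature; read-out: Caspase-3/7 activation, seen as rise in luminescence signal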
* marks the source's active call; other numbers are inactive results. Only part of the results is shown. The share of hits here may be higher or lower than overall.

SMILES	A1 apoptosis 2
CC(C)NC(=O)Nc1cccc2c1O[C@@H](CN(C)S(=O)(=O)c1cccs1)[C@@H](C)CN([C@H](C)CO)C2=O	-1.2
CC(C)NC(=O)N(C)C[C@H]1OCCCC[C@H](C)Oc2ccc(NS(=O)(=O)c3ccc(F)cc3)cc2C(=O)N([C@@H](C)CO)C[C@H]1C	0.6
COc1ccc(S(=O)(=O)N(C)C[C@H]2Oc3ccc(NC(=O)Cn4cnnn4)cc3C(=O)N([C@H](C)CO)C[C@H]2C)cc1	-0.9
Cc1ccc(S(=O)(=O)Nc2ccc3c(c2)C(=O)N([C@H](C)CO)C[C@@H](C)[C@@H](CN(C)C(=O)NC(C)C)O3)cc1	-0.1
C[C@@H]1CN([C@H](C)CO)C(=O)Cc2cc(NC(=O)CCN3CCOCC3)ccc2O[C@H]1CN(C)Cc1ccc(-c2ccccc2)cc1	0.6
COc1ccc(S(=O)(=O)N(C)C[C@H]2Oc3c(NC(=O)c4cc(C)nn4C)cccc3C(=O)N([C@H](C)CO)C[C@H]2C)cc1	0.9
O=C(NO)c1ccc(C(=O)N/N=C/c2ccc(O)c(O)c2O)cc1	0.0
Cc1noc(C)c1S(=O)(=O)N(C)C[C@H]1OCCCC[C@@H](C)Oc2ccc(NC(=O)NC(C)C)cc2C(=O)N([C@@H](C)CO)C[C@@H]1C	-1.0
O=C(NO)c1cccc(C(=O)N/N=C/c2ccc(N3CCCC3)cc2)c1	-5.0
C[C@@H]1CN([C@H](C)CO)C(=O)c2cc(NC(=O)C3CCCCC3)ccc2O[C@H]1CN(C)C(=O)Nc1cccc2ccccc12	0.6
C[C@@H]1CN([C@H](C)CO)C(=O)Cc2cc(NC(=O)c3ccncc3)ccc2O[C@H]1CN(C)S(C)(=O)=O	1.2
C[C@@H]1CN([C@@H](C)CO)C(=O)c2cc(N(C)C)ccc2O[C@@H]1CN(C)S(=O)(=O)c1cccs1	0.3
CC(C)NC(=O)Nc1ccc2c(c1)C(=O)N([C@@H](C)CO)C[C@H](C)[C@H](CN(C)Cc1ccncc1)OCCCC[C@H](C)O2	-0.6
Cc1noc(C)c1NC(=O)N(C)C[C@@H]1OCCCC[C@H](C)Oc2ccc(NC(=O)Nc3cccc4ccccc34)cc2C(=O)N([C@H](C)CO)C[C@@H]1C	-0.8
COc1ccc(CN(C)C[C@@H]2OCc3cn(nn3)CCCC(=O)N([C@@H](C)CO)C[C@H]2C)cc1	0.7
C[C@@H]1CCCCO[C@H](CN(C)C(=O)Nc2cccc3ccccc23)[C@@H](C)CN([C@H](C)CO)C(=O)c2cc(NC(=O)CCCCCC(=O)Nc3ccccc3N)ccc2O1	3.6
CNC[C@H]1OCCCC[C@@H](C)Oc2ccc(NC(=O)NC(C)C)cc2C(=O)N([C@@H](C)CO)C[C@@H]1C	-1.1
C[C@@H]1CN([C@@H](C)CO)C(=O)Cc2cc(NS(C)(=O)=O)ccc2O[C@H]1CN(C)Cc1ccc(C(=O)Nc2ccccc2N)cc1	-0.3
C[C@@H]1CCCCO[C@@H](CN(C)C(=O)c2ccccc2)[C@@H](C)CN([C@H](C)CO)C(=O)c2cc(NS(C)(=O)=O)ccc2O1	-0.2
COc1ccc(S(=O)(=O)Nc2cccc3c2O[C@@H](CN(C)S(=O)(=O)c2cccs2)[C@H](C)CN([C@@H](C)CO)C3=O)cc1	0.3
CNC[C@@H]1Oc2c(N)cccc2C(=O)N([C@@H](C)CO)C[C@@H]1C	0.4
C[C@@H]1CCCCO[C@@H](CN(C)C(=O)CCC(F)(F)F)[C@@H](C)CN([C@@H](C)CO)C(=O)c2cc(N(C)C)ccc2O1	-0.3
CC(C)NC(=O)N(C)C[C@@H]1Oc2ccc(NC(=O)Nc3ccc(C(F)(F)F)cc3)cc2CC(=O)N([C@@H](C)CO)C[C@@H]1C	-0.6
C[C@@H]1CN([C@H](C)CO)C(=O)c2cc(NC(=O)Nc3cccc4ccccc34)ccc2O[C@@H](C)CCCCO[C@H]1CN(C)Cc1ccc(C(F)(F)F)cc1	0.2
COc1ccc(NC(=O)Nc2ccc3c(c2)C(=O)N([C@@H](C)CO)C[C@@H](C)[C@H](CN(C)C(=O)Nc2c(C)noc2C)OCCCC[C@@H](C)O3)cc1	0.8
C[C@H](CO)N1C[C@H](C)[C@@H](CN(C)C(=O)Nc2ccc(C(F)(F)F)cc2)Oc2ccc(NC(=O)Nc3ccc(C(F)(F)F)cc3)cc2CC1=O	-0.9
C[C@H]1CCCCO[C@@H](CN(C)Cc2ccc(C(=O)O)cc2)[C@@H](C)CN([C@@H](C)CO)C(=O)c2cc(NS(=O)(=O)c3ccc(F)cc3)ccc2O1	0.5
Cc1noc(C)c1S(=O)(=O)N(C)C[C@@H]1Oc2c(NC(=O)c3ccc(-c4nccs4)cc3)cccc2C(=O)N([C@@H](C)CO)C[C@@H]1C	2.3
C[C@H](CO)N1C[C@H](C)[C@H](CN(C)C(=O)NC2CCCCC2)Oc2ccc(NC(=O)Cc3ccccc3)cc2CC1=O	1.3
C[C@@H]1CCCCO[C@H](CN(C)S(=O)(=O)c2cccs2)[C@H](C)CN([C@H](C)CO)C(=O)c2cc(NC(=O)CCC(F)(F)F)ccc2O1	1.5
COc1ccc(S(=O)(=O)Nc2ccc3c(c2)C(=O)N([C@@H](C)CO)C[C@@H](C)[C@@H](CN(C)S(=O)(=O)c2ccc(Cl)cc2)OCCCC[C@@H](C)O3)cc1	0.5
C[C@@H]1CCCCO[C@@H](CN(C)C(=O)c2ccncc2)[C@@H](C)CN([C@H](C)CO)C(=O)c2cc(NS(C)(=O)=O)ccc2O1	1.0
C[C@H](CO)N1C[C@H](C)[C@@H](CN(C)Cc2ccncc2)Oc2ccc(NC(=O)Nc3cccc4ccccc34)cc2C1=O	0.4
C[C@@H]1CCCCO[C@@H](CN(C)C(=O)C2CCCCC2)[C@@H](C)CN([C@H](C)CO)C(=O)c2cc(NC(=O)C3CCCCC3)ccc2O1	-0.3
C[C@@H]1CN([C@H](C)CO)C(=O)c2cc(NC(=O)c3ccncc3)ccc2O[C@@H](C)CCCCO[C@@H]1CN(C)Cc1ccc(C(=O)O)cc1	0.1
COc1ccc(NC(=O)N(C)C[C@H]2Oc3c(NC(=O)c4cc(C)nn4C)cccc3C(=O)N([C@@H](C)CO)C[C@H]2C)cc1	1.0
Cc1ccc(S(=O)(=O)Nc2cccc3c2O[C@H](CN(C)CC2CCCCC2)[C@@H](C)CN([C@@H](C)CO)C3=O)cc1	-0.7
COc1ccc(NC(=O)N(C)C[C@@H]2Oc3ccc(NS(=O)(=O)c4cn(C)cn4)cc3C(=O)N([C@@H](C)CO)C[C@@H]2C)cc1	-0.6
C[C@@H]1CN([C@H](C)CO)C(=O)c2cc(NS(=O)(=O)c3ccccc3)ccc2O[C@@H]1CN(C)Cc1ccccc1	1.0
C[C@@H]1CCCCO[C@H](CN(C)Cc2ccc(C(=O)O)cc2)[C@H](C)CN([C@H](C)CO)C(=O)c2cc(NS(=O)(=O)c3ccccc3)ccc2O1	0.0

Pulled one by one from the list above:
SMILES	A1 apoptosis 2
Cc1ccc(S(=O)(=O)Nc2cccc3c2O[C@H](CN(C)CC2CCCCC2)[C@@H](C)CN([C@@H](C)CO)C3=O)cc1	-0.7
COc1ccc(NC(=O)N(C)C[C@H]2Oc3c(NC(=O)c4cc(C)nn4C)cccc3C(=O)N([C@@H](C)CO)C[C@H]2C)cc1	1.0
C[C@@H]1CCCCO[C@H](CN(C)Cc2ccc(C(=O)O)cc2)[C@H](C)CN([C@H](C)CO)C(=O)c2cc(NS(=O)(=O)c3ccccc3)ccc2O1	0.0
C[C@@H]1CCCCO[C@@H](CN(C)C(=O)c2ccncc2)[C@@H](C)CN([C@H](C)CO)C(=O)c2cc(NS(C)(=O)=O)ccc2O1	1.0

Other structures:
SMILES	A1 apoptosis 2
C[C@@H]1CN([C@@H](C)CO)C(=O)Cc2cc(NC(=O)Cn3cnnn3)ccc2O[C@@H]1CN(C)S(=O)(=O)c1cccs1	-0.9
C[C@H]1CN([C@@H](C)CO)C(=O)Cc2cc(NC(=O)Cc3ccccc3)ccc2O[C@H]1CN(C)Cc1ccc(-c2ccccc2)cc1	1.0
C[C@@H]1CN([C@@H](C)CO)C(=O)c2cccc(NC(=O)Nc3ccc(C(F)(F)F)cc3)c2O[C@@H]1CN(C)Cc1ccc(C(=O)O)cc1	0.6
C[C@H]1CN([C@@H](C)CO)C(=O)Cc2cc(NC(=O)NC3CCCCC3)ccc2O[C@H]1CN(C)Cc1ccc2c(c1)OCO2	0.3
C[C@@H]1CN([C@@H](C)CO)C(=O)c2cc(NC(=O)C3CCCCC3)ccc2O[C@@H](C)CCCCO[C@@H]1CN(C)Cc1ccc(C(=O)O)cc1	0.3
C[C@H](CO)N1C[C@H](C)[C@@H](CN(C)C(=O)CCCN(C)C)OCCCC[C@H](C)Oc2ccc(NC(=O)Nc3cccc4ccccc34)cc2C1=O	-0.5
C[C@H]1CN([C@@H](C)CO)C(=O)c2cc(NC(=O)Cc3cn(C)c4ccccc34)ccc2O[C@@H]1CN(C)S(=O)(=O)c1cn(C)cn1	-2.0
C[C@@H]1CCCCO[C@H](CN(C)S(=O)(=O)c2cccs2)[C@@H](C)CN([C@@H](C)CO)C(=O)c2cc(NC(=O)c3ccccc3)ccc2O1	0.7
C[C@@H]1CN([C@H](C)CO)C(=O)c2cc(NC(=O)Cc3cn(C)c4ccccc34)ccc2O[C@H]1CN(C)CC1CCCCC1	0.6
C[C@H]1CN([C@@H](C)CO)C(=O)c2cc(NS(=O)(=O)c3cccs3)ccc2O[C@@H]1CN(C)C(=O)Nc1ccc(F)cc1	0.0

Four entries from above in another layout.
SMILES | A1 apoptosis 2
C[C@H]1CN([C@@H](C)CO)C(=O)c2cc(NS(=O)(=O)c3cccs3)ccc2O[C@@H]1CN(C)C(=O)Nc1ccc(F)cc1 | 0.0
C[C@@H]1CCCCO[C@H](CN(C)S(=O)(=O)c2cccs2)[C@@H](C)CN([C@@H](C)CO)C(=O)c2cc(NC(=O)c3ccccc3)ccc2O1 | 0.7
C[C@H](CO)N1C[C@H](C)[C@@H](CN(C)C(=O)CCCN(C)C)OCCCC[C@H](C)Oc2ccc(NC(=O)Nc3cccc4ccccc34)cc2C1=O | -0.5
C[C@@H]1CN([C@@H](C)CO)C(=O)c2cccc(NC(=O)Nc3ccc(C(F)(F)F)cc3)c2O[C@@H]1CN(C)Cc1ccc(C(=O)O)cc1 | 0.6

The list continues.
SMILES	A1 apoptosis 2
Cc1noc(C)c1S(=O)(=O)Nc1ccc2c(c1)C(=O)N([C@@H](C)CO)C[C@H](C)[C@H](CN(C)C(=O)Nc1ccc3c(c1)OCO3)O2	1.4
C[C@@H]1CN([C@H](C)CO)C(=O)Cc2cc(NC(=O)Cc3ccccc3)ccc2O[C@@H]1CN(C)Cc1ccncc1	0.3
Cc1noc(C)c1NC(=O)Nc1ccc2c(c1)C(=O)N([C@H](C)CO)C[C@@H](C)[C@@H](CN(C)Cc1ccc3c(c1)OCO3)OCCCC[C@H](C)O2	-1.1
C[C@@H]1CCCCO[C@H](CN(C)C(=O)Nc2ccc3c(c2)OCO3)[C@H](C)CN([C@H](C)CO)C(=O)c2cc(NC(=O)Cc3ccccc3)ccc2O1	-0.6
Cc1noc(C)c1NC(=O)N(C)C[C@@H]1Oc2ccc(NS(=O)(=O)c3c(C)noc3C)cc2C(=O)N([C@@H](C)CO)C[C@H]1C	-0.3
C[C@@H]1CN([C@H](C)CO)C(=O)c2cc(NC(=O)Nc3ccc4c(c3)OCO4)ccc2O[C@H]1CN(C)S(=O)(=O)c1ccc(F)cc1	-0.3
C[C@@H]1CN([C@H](C)CO)C(=O)Cc2cc(NC(=O)CCC(F)(F)F)ccc2O[C@@H]1CN(C)C(=O)Nc1ccccc1	-0.2
C[C@@H]1CN([C@H](C)CO)C(=O)c2cc(NC(=O)c3ccccc3)ccc2O[C@@H](C)CCCCO[C@H]1CN(C)C(=O)c1ccccc1	0.3
C[C@H]1CCCCO[C@H](CN(C)S(=O)(=O)c2ccccc2)[C@@H](C)CN([C@@H](C)CO)C(=O)c2cc(NS(=O)(=O)c3cccs3)ccc2O1	0.8
C[C@@H]1CN([C@@H](C)CO)C(=O)c2cccc(NC(=O)C3CCOCC3)c2O[C@H]1CN(C)C(=O)Nc1ccccc1	-0.9
C[C@@H]1CN([C@H](C)CO)C(=O)c2cccc(NC(=O)c3ccc(-c4nccs4)cc3)c2O[C@@H]1CN(C)C(=O)Nc1ccc(F)cc1	-0.4
C[C@@H]1CN([C@@H](C)CO)C(=O)c2cc(NS(C)(=O)=O)ccc2O[C@H]1CN(C)C(=O)Nc1ccc2c(c1)OCO2	0.2
C[C@H]1CN([C@@H](C)CO)C(=O)c2cccc(NC(=O)Nc3ccc(C(F)(F)F)cc3)c2O[C@H]1CN(C)S(=O)(=O)c1ccccc1	-0.5
Cc1noc(C)c1NC(=O)Nc1ccc2c(c1)C(=O)N([C@H](C)CO)C[C@@H](C)[C@@H](CN(C)C(=O)Nc1ccccc1)OCCCC[C@@H](C)O2	-0.5
Cc1noc(C)c1S(=O)(=O)N(C)C[C@@H]1Oc2ccc(NC(=O)CCCCCC(=O)Nc3ccccc3N)cc2CC(=O)N([C@H](C)CO)C[C@@H]1C	0.9
Cc1noc(C)c1S(=O)(=O)N(C)C[C@H]1Oc2ccc(NC(=O)CCCCCC(=O)Nc3ccccc3N)cc2CC(=O)N([C@@H](C)CO)C[C@H]1C	0.4
C[C@@H]1CCCCO[C@H](CN(C)C(=O)CCC(F)(F)F)[C@H](C)CN([C@@H](C)CO)C(=O)c2cc(NC(=O)c3ccccc3)ccc2O1	1.3
C[C@@H]1CCCCO[C@H](CN(C)C(=O)NC2CCCCC2)[C@H](C)CN([C@H](C)CO)C(=O)c2cc(NC(=O)C3CCCCC3)ccc2O1	-0.5
